Source: PubChem BioAssay
SARS PLP yeast: inhibitors of SARS-CoV papain-like protease in yeast | Potency, µM (series often up to 32.9 µM), for inactives: top-dose activity, positive = growth rescue | S. cerevisiae expressing SARS-CoV PLpro, growth rescue; control for the full effect not named in the record | AID 485353 | hit rate 0.19% among 330,000; active means well fitted rising curve with a large enough effect; inconclusive means small, poorly fitted or top-dose-only effect; inactive means no such curve, though single readings can be large or run the other way; further: 0% is about no effect; nearly all actives have a fitted effect of over 55% in size; growth read by luminescence after 48 h
Cruzain inh Det: inhibitors of Trypanosoma cruzi cruzain with detergent | P25779 | hit rate 0.43% among 200,000 | purified cruzain, Z-FR-AMC fluorescence, 0.01% Triton | AID 1478 | Potency, µM, without a hit: max response, negative = inhibition, most hits filed as inhibitors;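 further: plate controls were neutral wells for no effect and buffer without enzyme for full effect; nearly all actives have a fitted effect of over 40% in size; top concentration of the series not given in the record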
Target sequence (P25779 123-467 limits assumed): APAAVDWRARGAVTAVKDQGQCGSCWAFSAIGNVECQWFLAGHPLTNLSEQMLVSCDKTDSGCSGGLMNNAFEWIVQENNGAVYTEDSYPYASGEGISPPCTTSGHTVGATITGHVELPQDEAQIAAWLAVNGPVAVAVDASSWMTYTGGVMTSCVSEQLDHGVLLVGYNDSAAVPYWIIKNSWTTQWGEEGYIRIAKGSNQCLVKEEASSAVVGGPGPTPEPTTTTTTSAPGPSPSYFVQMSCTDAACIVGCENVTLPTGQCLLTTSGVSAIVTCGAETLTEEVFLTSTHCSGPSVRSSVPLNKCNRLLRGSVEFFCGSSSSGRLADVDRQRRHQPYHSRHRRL
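In this qHTS format, compounds are incubated with 1.5 nM cruzain for 15 min at room temperature before 2 uM Z-FR-AMC is added. Release of AMC is followed at 360/450 nm, and progress is taken as the 60 s fluorescence difference.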
MARV entry inh: blocks Marburg virus binding to or entry into cells | Marburg virus pseudotyped entry inhibition, cell reporter; control for the full effect not named in the record; about a third of the inactives were read at about 46 µM | Potency, µM (top dose mostly 37.8 µM), inactives show at the highest dose activity change, negative = inhibition, usual class: inhibitors | hit rate 1.8% among 300,000 | AID 540276; active = well fitted inhibition curve with a large enough effect; inconclusive = small, poorly fitted or top-dose-only effect, or effect the other way; inactive = flat fitted curve, though single readings scatter; tested in HEK293 cells; about a fifth of its hits are not listed in these tables; further: on the % scale 0 is the no-effect control and ±100 the full control effect; luciferase read-out
Cruzain inh noDet: blocks cruzain activity in detergent-free assay; purified cruzain, Z-FR-AMC fluorescence, no detergent; AID 1476; Potency, µM, for the others: max response, negative = inhibition, actives largely listed as inhibitors; P25779; hit rate 2.3% among 200,000;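 further: plate controls were enzyme without inhibitor for no effect and buffer without enzyme for full effect; nearly all actives have a fitted effect of over 40% in size; top concentration of the series not given in the record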
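Detergent-free condition (0.00005% Triton X-100) in acetate buffer pH 5.5 with DTT. 1.5 nM enzyme and compound were pre-mixed 15 min, then 2 uM Z-FR-AMC substrate added; reaction progress from fluorescence change between first and third reads (60 s).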
RE007 growth inh: less growth of the S. pombe RE007 Vpr strain; AID 651644; Potency, µM (titrated, usually from 92.2 µM), inactives show at the highest dose activity change, negative = less growth; hit rate 0.21% among 360,000; S. pombe RE007 Vpr strain, BacTiter-Glo ATP luminescence, 24 h; control for the full effect not named in the record; active = well fitted falling curve with a large enough effect; inconclusive = small, poorly fitted or top-dose-only effect; inactive = no such curve, though single readings can be large or run the other way;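 further: on the % scale 0 is the no-effect control and ±100 the full control effect; nearly all actives have a fitted effect of over 50% in size; the assay follows cell death caused by Vpr and the record does not say whether a fall means rescue or toxicity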
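Fission yeast strain RE007, carrying one chromosomally integrated HIV-1 vpr copy, was seeded at OD 0.01 in PMG+AL medium with 23 nL pinned compound. After 24 h at 30 °C and 99% humidity, viability was read by BacTiter-Glo luminescence.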
NS1 inh: inhibitors of influenza NS1 protein function. S. cerevisiae slowed by influenza A NS1, growth recovery by OD600. AID 2326. hit rate 0.4% among 270,000. Potency, µM (series often up to 46.1 µM), for the others: top-dose activity, positive = more growth; active means well fitted rising curve with a large enough effect; inconclusive means small, poorly fitted or top-dose-only effect; inactive means no such curve, though single readings can be large or run the other way; further: nearly all actives have a fitted effect of over 50% in size
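Compounds were scored for reversing the slow growth caused by influenza A NS1 in S. cerevisiae, measured by optical density at 600 nm. Assay medium contained 2% galactose at pH 6.0; NS1-free yeast of the same strain were the positive control.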
StopGo reporter: FMDV 2A StopGo reporter, luciferase signal; hit rate 1.2% among 410,000; human cells with a luciferase reporter of 2A StopGo recoding; control for the full effect not named in the record; AID 1159524; Potency, µM (doses to about 57.9 µM), inactives show at the highest dose signal change, negative = less light; active = well fitted falling curve with a large enough effect; inconclusive = small, poorly fitted or top-dose-only effect; inactive = no such curve, though single readings can be large or run the other way; tested in HEK293T cells; further: on the % scale 0 is the no-effect control and ±100 the full control effect; nearly all actives have a fitted effect of over 45% in size; luciferase light after 4 h
LASV entry inh: Lassa virus entry inhibition. Lassa virus pseudotype entry inhibition, cell reporter; control for the full effect not named in the record. hit rate 1.2% among 300,000. AID 540256. Potency, µM (series often up to 37.9 µM), for the others: at the highest dose activity change, negative = inhibition, actives largely listed as inhibitors; active means well fitted inhibition curve with a large enough effect; inconclusive means small, poorly fitted or top-dose-only effect, or effect the other way; inactive means flat fitted curve, though single readings scatter; tested in HEK293 cells; further: on the % scale 0 is the no-effect control and ±100 the full control effect; nearly all actives have a fitted effect of over 50% in size; luciferase read-out
* marks the source's active call; other numbers are inactive results; ? = inconclusive; nt = not tested or not shown; [ ] = dose if it differs, or a comment. Unless noted, the call rests on the fitted dose curve; in most records, active means well fitted curve in the direction sought with a large enough effect; inconclusive means small, poorly fitted or top-dose-only effect, or another doubt; inactive means no such curve, though single readings can be large; an effect the other way counts as inactive or inconclusive. Potency means the concentration at half of the fitted maximal effect. Random draw from the library. About 4.7% of those tested had a hit in this group.

SMILES	SARS PLP yeast	Cruzain inh Det	MARV entry inh	Cruzain inh noDet	RE007 growth inh	NS1 inh	StopGo reporter	LASV entry inh
COc1ccc2nc(N3CCCC3)c(C#N)cc2c1	0%	-2.1%	?	-11%	-1%	-15%	32%	?
CNc1nnc(C(F)(F)F)s1	1%	nt	0%[14.2 µM]	nt	2%	4%	7%	17%
Cc1ccc(S(=O)(=O)N(CC(=O)Nc2ccc(C)cc2C)C(=O)N2CCN(C)CC2)cc1	12%	nt	-1%[46.1 µM]	nt	-3%	nt	-12%	6%
CS(=O)(=O)c1ccc(Cl)c(NC(=O)CCN2C(=O)NC3(CCCC3)C2=O)c1	-11%	nt	-1%[46.1 µM]	nt	8%	nt	-11%	-9%[46.1 µM]
O=c1c2cccnc2n(Cc2ccccc2F)c(=O)n1Cc1ccc(F)cc1	nt	-16%	-7%[46.1 µM]	9%	nt	nt	-19%	nt
Cc1nc2cc(C(=O)NCc3ccc4c(c3)OCO4)ccc2n1-c1ccc(Br)cc1	-10%	-1.9%	?	-24%	3%	15%	-3%	-6%
CCCOc1ccc2oc(=O)c3c(c2c1)CCCN3C(=O)CN1CCc2ccccc2C1	-8%	-14%	?	11%	0%	-51%	-18%	?
COc1ccc(OC)c(NC(=O)CCNS(=O)(=O)c2cccc3nonc23)c1	-2%	nt	-7%[46.1 µM]	nt	8%	11%	17%	-4%
CCOc1ccc(-c2c(C(=O)N/N=C/c3cccnc3)nnn2-c2nonc2N)cc1	5%	nt	nt	nt	2%	-4%	?	nt
CC1CCN(Cc2cnc(Cl)s2)CC1	0%	4.0%	?	-6%	-8%	-1%	-8%	9%
C/C(=N\NC(=O)c1ccccc1O)c1c(O)n(Cc2ccccc2)c(=O)[nH]c1=O	4%	nt	nt	nt	-2%	4%	33%[activator]	nt
CCc1nnc(N2C(=O)c3cccc4cccc(c34)C2=O)s1	1%	-2.5%	10%	?	-1%	16%	2%	-3%
Cc1cc(C(=O)OCC(=O)NCc2cccs2)ccc1[N+](=O)[O-]	4%	nt	-32%	nt	-1%	nt	-7%	?
Cc1ccc(NC(=O)CN2CCN(CCN=CC3=C(O)CC(c4ccccc4)CC3=O)CC2)cc1 (stereo unspecified)	-16%	0.5%	5%	0%	-17%	-2%	-10%	4%
COc1ccc(CCNC(=O)c2c(Cl)ccc(Cl)c2OC)cc1OC	5%	nt	16%[46.1 µM]	nt	22%	19%	-8%	-21%[46.1 µM]
COc1cccc(/C=C/C(=O)OCC(=O)NCc2ccco2)c1	6%	-8.1%	19%	-12%	nt	-9%	3%	-3%
CCOCCOC(=O)c1[nH]c2c(c1C)C(=O)CC(c1cc(OC)c(OC)c(OC)c1)C2 (stereo unspecified)	0%	nt	?	nt	7%	-5%	28µM*	-17%
CCn1c(SCC(=O)NC2CCCCC2)nc2c(c1=O)SCC2	-1%	nt	-17%	nt	1%	20%	-20%	-3%
CCCNC(=O)N1CCN(S(=O)(=O)c2ccc(C)cc2)CC1	-1%	2.7%	9%	0%	4%	-6%	-25%	4%
CC(C)c1ccc(CN2C(=O)c3ccccc3S2(=O)=O)cc1	-9%	nt	?	nt	-1%	-16%	17%	?
COc1ccc2[nH]c(O)c(N=NC(=N)N)c2c1	-9%	-8.4%	?	-8%	-4%	-2%	-16%	-5%
O=C(Nc1c(C(=O)N2CCOCC2)cnn1-c1ccccc1)c1ccccc1F	0%	nt	12%[46.1 µM]	nt	13%	-2%	2%	0%
Cc1nn(Cc2ccc(F)cc2)c(C)c1NC(=O)C1c2ccccc2Oc2ccccc21	2%	3.0%	-34%	25%	-12%	7%	-7%	-13%
N#CC(c1ccc([N+](=O)[O-])cc1)C(CC(=O)c1ccccc1)c1ccccc1 (stereo unspecified)	nt	nt	?	nt	-2%	nt	-11%	?
O=C(Cn1c(=S)[nH]c2ccccc2c1=O)NCCc1ccccc1	0%	nt	0%[46.1 µM]	nt	-1%	nt	18%	-2%
Cc1ccccc1OCCn1cnc2c(N)ncnc21	26%	1.4%	11%	3%	4%	15%	6%	30%
CC(=O)N1CCc2c(sc3c2c(=O)n(-c2ccccc2Cl)c(=O)n3C)C1	nt	1.2%	nt	-1%	nt	nt	-16%	?
CC(=O)c1cccc(-n2nnnc2SCC(=O)Nc2ccccc2N2CCCCC2)c1	1%	0.7%	11µM*	7%	35%	-48%	?	?
CN(C)c1ccc(CNc2ccccn2)cc1	?	nt	?	nt	-4%	21%	0%	?
CC(C(=O)N1CCc2ccccc2C1)N(c1ccccc1)S(C)(=O)=O (stereo unspecified)	-3%	nt	0%[46.1 µM]	nt	18%	17%	-23%	20%[46.1 µM]
Cc1ccc(S(=O)(=O)C2(C(=O)NCCc3ccccc3)CC2)cc1	5%	nt	-3%[46.1 µM]	nt	14%	-6%	-2%	13%[46.1 µM]
CC(=O)c1c(C)[nH]c(C(=O)Nc2ccc(Cl)cc2)c1C	1%	nt	?	nt	11%	-11%	83%[activator]	?
Cc1nn(CCC(=O)NNC(=S)NCC(C)C)c(C)c1Br	-8%	5.5%	-27%	10%	1%	5%	-4%	2%
Cc1nc2c3ccccc3nc(NNC(=O)CCC(=O)NCCN3CCN(c4ccccc4F)CC3)n2n1	-1%	nt	nt	nt	-4%	0%	-9%	nt
O=C1CC(NS(=O)(=O)c2cccnc2)CN1c1cccc(F)c1 (stereo unspecified)	-3%	nt	8%[46.1 µM]	nt	12%	nt	-5%	1%
O=C(Nc1ccncc1)c1cc(S(=O)(=O)N2CCN(c3ccccc3)CC2)ccc1Cl	2%	nt	?	nt	8%	nt	?	1%
COc1cc2c(c(OC)c1OC)-c1ccc(N(C)CC(OC)OC)c(=O)cc1[C@@H](NC(C)=O)CC2	0%	nt	1µM*	nt	-19%	-3%	-1%	nt
N#CCCN(C(=O)COC(=O)c1ccc2c(=O)n3c(nc2c1)CCC3)c1ccccc1	-2%	nt	-1%[46.1 µM]	nt	2%	nt	2%	3%
Cc1cc(C(=O)OCC(=O)Nc2nnc(C(C)C)s2)c2ccccc2n1	5%	0.2%	?	-3%	6%	0%	?	-10%
O=C(NCCc1ccc(Cl)cc1)c1nnc(Cc2ccc(Cl)cc2)o1	-6%	1.7%	-2%	-2%	5%	5%	-8%	-3%
Cc1nnsc1-c1nc2ccccc2[nH]1	4%	-7.1%	-4%[46.1 µM]	-9%	2%	-62%	24%	-22%
CC(=O)N(c1nc(CCl)cs1)c1c(C)cc(C)cc1C	-11%	1.2%	4%[46.1 µM]	-7%	1%	-4%	-2%	-2%[46.1 µM]
COc1ccc(S(=O)(=O)Nc2noc3ccccc23)cc1OC	0%	nt	nt	nt	28%	-1%	32%[activator]	nt
O=C(O)C1(c2ccccc2)CCN(S(=O)(=O)c2ccc(Cl)cc2)CC1	4%	nt	-7%	nt	10%	3%	-28%	-5%
OCCC1CN(Cc2cnc(-c3ccccc3)s2)CCN1C1CCCCC1 (stereo unspecified)	0%	nt	-8%[46.1 µM]	nt	-18%	-1%	-13%	-16%
COc1ccc(-c2cn3cc(C(=O)NN)ccc3n2)cc1	-4%	nt	?	nt	-14%	15%	30%	?
CCN(CC)c1ccc2c(c1)C(=O)N(C)C2=O	-5%	-3.1%	12%	1%	-8%	-19%	20%	25%
COc1cccc(OC)c1C(=O)NC(C)c1ccccc1 (stereo unspecified)	26%	-2.5%	?	-7%	8%	9%	2%	0%
Cc1cc(C)cc(NC(=O)Cn2cc(C=O)c3ccccc32)c1	1%	nt	?	nt	2%	1%	-18%	10%
Cc1cc(OCc2cc(C(=O)N(C)CCc3cnn(C)c3)no2)cc(C)c1Cl	-5%	nt	-19%[46.1 µM]	nt	-1%	-28%	10%	-15%[46.1 µM]
CC(C)COCC(O)CCC(=O)NNC(=S)Nc1ccccc1 (stereo unspecified)	0%	-5.8%	8%	4%	-7%	-2%	43%[activator]	15%
CN1CCN(P(=O)(c2ccccc2)c2nc3ccccc3s2)CC1 (stereo unspecified)	0%	2.3%	-15%	-8%	3%	-2%	nt	7%
CCOC(=O)c1c(C)oc2nc(C)nc(NCCc3ccc(Cl)cc3)c12	nt	-0.8%	nt	-16%	nt	nt	-2%	12%[46.1 µM]
O=C(NCCn1cc(SCC(=O)N2CCOCC2)c2ccccc21)c1ccccc1	8%	-0.3%	nt	4%	0%	-18%	-20%	nt
CN(CCOc1ccccc1)S(=O)(=O)c1ccc2oc3ccccc3c2c1	-8%	-1.4%	-8%	-18%	-8%	-11%	-27%	?
CCOCCCNC(=O)C(NC(=O)Cc1c[nH]c2ccccc12)c1ccc(OC)cc1 (stereo unspecified)	6%	nt	-8%[46.1 µM]	nt	0%	-3%	1%	nt
CCn1cc(-c2csc(N)n2)c(C)n1	2%	nt	5%[46.1 µM]	nt	6%	nt	18%	-2%
Cc1ccc(OCC(=O)NCCNC(=O)c2ccncc2)cc1	1%	nt	7%[46.1 µM]	nt	33%	-2%	-5%	12%[46.1 µM]
COc1cc(C2C(=O)N(C3CCCCC3)CC(=O)N2CCc2ccccc2)ccc1OC(C)C (stereo unspecified)	nt	0.4%	nt	2%	nt	nt	-17%	-12%[46.1 µM]
COc1ccc(S(=O)(=O)N2CCN(C/C=C/c3ccccc3)CC2)cc1NC(C)=O	3%	nt	-6%[46.1 µM]	nt	6%	4%	-18%	-17%[46.1 µM]
COc1ccc(C(C#N)Nc2ccc(C)cc2)cc1 (stereo unspecified)	0%	-3.9%	-1%	-5%	-4%	3%	-7%	9%
NC(=O)c1cc(NC(=O)c2ccc(NS(=O)(=O)c3cccs3)cc2)cc(C(N)=O)c1	1%	nt	-4%[46.1 µM]	nt	2%	-5%	-5%	-2%
